LASV entry inh: qHTS for Inhibitors of binding or entry into cells for Lassa Virus; Lassa virus pseudotype entry inhibition, cell reporter; control for the full effect not named in the record; Potency, µM (highest dose often 37.9 µM), without a hit: top-dose activity change, negative = inhibition, usual class: inhibitors; actives 1.2% (n = 300,000); AID 540256, 2011; active means well fitted inhibition curve with a large enough effect; inconclusive means small, poorly fitted or top-dose-only effect, or effect the other way; inactive means flat fitted curve, though single readings scatter; tested in HEK293 cells; further: on the % scale 0 is the no-effect control and ±100 the full control effect; nearly all actives have a fitted effect of over 50% in size; luciferase read-out
Cruzain inh Det: qHTS Assay for Promiscuous and Specific Inhibitors of Cruzain (with detergent); Potency, µM, without a hit: max response, negative = inhibition, usual class: inhibitors; actives 0.43% (n = 200,000); Cruzipain (Trypanosoma cruzi), P25779; purified cruzain, Z-FR-AMC fluorescence, 0.01% Triton; active means well fitted curve in the direction sought with a large enough effect; inconclusive means small, poorly fitted or top-dose-only effect, or another doubt; inactive means no such curve, though single readings can be large; an effect the other way counts as inactive or inconclusive;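 further: plate controls were neutral wells for no effect and buffer without enzyme for full effect; nearly all actives have a fitted effect of over 40% in size; top concentration of the series not given in the record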
Target sequence (P25779 123-467 limits assumed): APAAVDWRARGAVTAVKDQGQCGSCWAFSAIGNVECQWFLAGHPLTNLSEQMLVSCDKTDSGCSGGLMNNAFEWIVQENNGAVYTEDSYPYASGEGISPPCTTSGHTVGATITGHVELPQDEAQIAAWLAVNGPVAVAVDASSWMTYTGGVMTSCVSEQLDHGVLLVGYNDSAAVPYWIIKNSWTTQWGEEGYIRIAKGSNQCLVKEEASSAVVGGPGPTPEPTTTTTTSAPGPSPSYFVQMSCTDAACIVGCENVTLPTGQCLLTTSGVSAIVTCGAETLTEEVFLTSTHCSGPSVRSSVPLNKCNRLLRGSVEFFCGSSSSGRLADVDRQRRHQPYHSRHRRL
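Read-out: AMC fluorescence (360 nm excitation, 450 nm emission), four reads over 2 min, first-to-third difference used. Conditions: cruzain 1.5 nM, Z-FR-AMC 2 uM, pH 5.5 acetate, 5 mM DTT, 0.01% Triton X-100.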
MARV entry inh: qHTS for inhibitors of binding or entry into cells for Marburg Virus; Potency, µM (doses to about 37.8 µM), for the others: at the highest dose activity change, negative = inhibition, actives largely listed as inhibitors; Marburg virus pseudotyped entry inhibition, cell reporter; control for the full effect not named in the record; about a third of the inactives were read at about 46 µM; actives 1.8% (n = 300,000); active = well fitted inhibition curve with a large enough effect; inconclusive = small, poorly fitted or top-dose-only effect, or effect the other way; inactive = flat fitted curve, though single readings scatter; tested in HEK293 cells; about a fifth of its hits are not listed in these tables; further: on the % scale 0 is the no-effect control and ±100 the full control effect; luciferase read-out
Cruzain noTriton: qHTS Assay for Promiscuous and Specific Inhibitors of Cruzain (without detergent); Potency, µM, for inactives: max response, negative = inhibition, most hits filed as inhibitors; purified cruzain, Z-FR-AMC fluorescence, no detergent; Cruzipain (Trypanosoma cruzi), P25779; actives 2.3% (n = 200,000); active means well fitted curve in the direction sought with a large enough effect; inconclusive means small, poorly fitted or top-dose-only effect, or another doubt; inactive means no such curve, though single readings can be large; an effect the other way counts as inactive or inconclusive;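 further: plate controls were enzyme without inhibitor for no effect and buffer without enzyme for full effect; nearly all actives have a fitted effect of over 40% in size; top concentration of the series not given in the record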
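Purified cruzain at 1.5 nM, pre-incubated 15 min with compound at room temperature in 100 mM sodium acetate pH 5.5, 5 mM DTT, 0.00005% Triton X-100. Reaction started with 2 uM Z-FR-AMC; AMC fluorescence increase over 60 s gives rate.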
NS1 inh: qHTS Assay for Inhibitors of Influenza NS1 Protein Function | actives 0.4% (n = 270,000) | Potency, µM (highest dose often 46.1 µM), for the others: at the highest dose activity, positive = more growth | S. cerevisiae slowed by influenza A NS1, growth recovery by OD600 | AID 2326, 2010; further: actives are rising curves; nearly all actives have a fitted effect of over 50% in size
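In this qHTS, NS1 from influenza A is expressed in budding yeast, where it slows growth. Cells are switched from glucose to 2% galactose medium (pH 6.0, -URA), treated with compound, and growth recovery is read at OD600.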
SARS PLP yeast: qHTS of Yeast-based Assay for SARS-CoV PLP; S. cerevisiae expressing SARS-CoV PLpro, growth rescue; control for the full effect not named in the record; Potency, µM (top dose mostly 32.9 µM), without a hit: at the highest dose activity, positive = growth rescue; actives 0.19% (n = 330,000); AID 485353, 2010; further: 0% is about no effect; nearly all actives have a fitted effect of over 55% in size; growth read by luminescence after 48 h
StopGo reporter: High Throughput Screening for Foot and Mouth Disease Virus Antivirals; human cells with a luciferase reporter of 2A StopGo recoding; control for the full effect not named in the record; Potency, µM (top dose mostly 57.9 µM), without a hit: at the top dose signal change, negative = less light; actives 1.2% (n = 410,000); active = well fitted falling curve with a large enough effect; inconclusive = small, poorly fitted or top-dose-only effect; inactive = no such curve, though single readings can be large or run the other way; tested in HEK293T cells; further: on the % scale 0 is the no-effect control and ±100 the full control effect; nearly all actives have a fitted effect of over 45% in size; luciferase light after 4 h
RE007 growth inh: qHTS Assay for Inhibitors of the HIV-1 protein Vpr. S. pombe RE007 Vpr strain, BacTiter-Glo ATP luminescence, 24 h; control for the full effect not named in the record. Potency, µM (top dose mostly 92.2 µM), inactives show top-dose activity change, negative = less growth. actives 0.21% (n = 360,000); active = well fitted falling curve with a large enough effect; inconclusive = small, poorly fitted or top-dose-only effect; inactive = no such curve, though single readings can be large or run the other way;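 further: on the % scale 0 is the no-effect control and ±100 the full control effect; nearly all actives have a fitted effect of over 50% in size; the assay follows cell death caused by Vpr and the record does not say whether a fall means rescue or toxicity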
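Fission yeast strain RE007, carrying one chromosomally integrated HIV-1 vpr copy, was seeded at OD 0.01 in PMG+AL medium with 23 nL pinned compound. After 24 h at 30 °C and 99% humidity, viability was read by BacTiter-Glo luminescence.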
* = called active by the depositor; ? = inconclusive; / = no result given; & = joins results of further samples; [ ] = another dose, or the depositor's remark. Unless noted, the call rests on the fitted dose curve; in most records, active means well fitted rising curve with a large enough effect; inconclusive means small, poorly fitted or top-dose-only effect; inactive means no such curve, though single readings can be large or run the other way. Potency means the concentration at half of the fitted maximal effect.

SMILES	LASV entry inh	Cruzain inh Det	MARV entry inh	Cruzain noTriton	NS1 inh	SARS PLP yeast	StopGo reporter	RE007 growth inh
O=C(Nc1cccc(S(=O)(=O)C(F)F)c1)c1ccc(S(=O)(=O)N2CCCCC2)cc1	?	/	?	/	/	-1%	28µM*	1%
COc1cc(S(=O)(=O)N2CCN(Cc3ccc4c(c3)OCO4)CC2)c(C)cc1C	-3%	-3.4%	0%	-2%	-91%	-3%	?	-4%
CC/S(C)=N/S(=O)(=O)c1ccc(C)cc1 (configuration not stated)	-1%	1.0%	?	12%	5%	20%	-9%	5%
O=C(N/N=C/c1cc(Br)ccc1O)c1ccncc1	?	/	2.8µM*	/	-73%	-1%	18%	2%
CC1(C)SC(=S)N(NC(=O)Nc2cccc3ccccc23)C1N(O)C(=O)Nc1ccccc1 (configuration not stated)	-27%	-3.2%	?	7%	?	2%	0%	-13%
O=C(NNC(=S)NC(=O)c1ccccc1[N+](=O)[O-])c1ccccc1[N+](=O)[O-]	-3%	-9.8%	5%	0%	14%	?	/	-3%
O=C(CN1C(=O)COc2ccccc21)N1CCCC1	-3%[46.1 µM]	/	-14%[46.1 µM]	/	?	14%	-7%	12%
CCCC(=O)Nc1nc2c(C)c(Cl)ccc2s1	/	/	/	/	-4%	-2%	8%	0%
Cc1ccc(NC(=O)c2sc3ncnc(N(C)C4CCCCC4)c3c2C)c(C)c1	0%[46.1 µM]	1.4%	/	14%	/	/	-21%	/
CCN(CCCNC(=O)CCn1c(=S)[nH]c2cc3c(cc2c1=O)OCO3)c1cccc(C)c1	/	/	/	/	1%	0%	-22%	-5%
COc1ccccc1NC(=O)CSc1nnc(C2CCCCC2)n1N	/	/	/	/	7%	6%	-9%	-24%
CCn1cc(-c2cc(C(=O)O)c3ccccc3n2)cn1	?	/	-31%[46.1 µM]	/	/	-7%	?	?
Cn1ccnc1-c1ccc(-c2nccn2C)cc1	7%[46.1 µM]	/	?	/	-1%	5%	-5%	17%
O=C(/C=C/c1cccc(Br)c1)N1CCN(c2cccc(C(F)(F)F)c2)CC1	-2%	-9.4%	?	8%	8%	1%	?	5%
COc1ccc(Nc2oc(/C=C/c3cc(OC)c(OC)c(OC)c3)nc2C#N)cc1	16%[46.1 µM]	-4.8%	-6%[46.1 µM]	?	/	/	-26%	/
CCC(CC)NC(=O)Nc1ccc(F)c(Cl)c1	0%	/	-2%	/	/	-2%	16%	5%
Cc1ccc(CNC(=O)C2CCC(CNc3c(N4CCC(C)CC4)c(=O)c3=O)CC2)cc1 (configuration not stated)	/	/	/	/	-4%	2%	9%	-10%
O=C1CCN(CCc2ccccc2)CCN1CCSc1ccc(Br)cc1	/	/	/	/	-37%	-2%	0%	?
O=C(Nc1ccccc1)Nc1nc(-c2ccc(F)cc2)cs1	?	-6.2%	?	?	-14%	-5%	6%	25%
Cc1ccc(F)cc1NC(=O)CN1CCN(c2ccccn2)CC1	-14%	/	4%	/	/	-2%	-28%	4%
Cc1cc(C)c(NC(=O)CSc2nc(=O)n(Cc3ccco3)c3c2CCC3)c(C)c1	-6%[46.1 µM]	-2.4%	/	-15%	/	/	25%	/
CCOC(=O)N1CCN(C(=O)CN(c2ccc3c(c2)OCO3)S(C)(=O)=O)CC1	-11%	-0.6%	12%	-1%	3%	3%	16%	-3%
CC(C)N(C(=O)Cn1cc(SCC(=O)Nc2ccccc2C(F)(F)F)c2ccccc21)C(C)C	24%[46.1 µM]	-0.8%	/	-3%	/	/	0%	/
Cc1cccc(NS(=O)(=O)c2ccc3c(c2)CCC(=O)N3)c1	/	/	-9%&-9%[46.1 µM]	/	0%	-4%	-7%&29%	-6%
O=C(NC1CCN(C(=O)Nc2cccc(Cl)c2)CC1)c1ccco1	11%	/	21%[46.1 µM]	/	0%	4%	-11%	5%
CCOc1ccc2nc(COC(=O)c3cccs3)c(C(=O)c3ccccc3)[n+]([O-])c2c1	8%	1.2%	22%	-7%	0%	21%	14%	8%
COc1ccc(NC(=O)CS(=O)(=O)c2cn(CC(=O)N3CCCC3)c3ccccc23)c(OC)c1	?	/	-13%	/	1%	-3%	-5%	-1%
Cc1ccc(NC(=S)N(CCN(C)C)Cc2cccs2)cc1C	6.3µM*	/	?	/	-7%	2%	2%	-24%
CCCN(Cc1nnc(-c2cccs2)o1)C(=O)CN1C(=O)NC2(CCCCC2)C1=O	4%	/	?	/	/	-4%	-25%	-8%
COc1ccc(C(=O)C2CCCN(C(=O)COc3ccc(C(C)=O)cc3)C2)cc1F (configuration not stated)	-3%	/	-15%	/	-3%	0%	?	-4%
CC1CCN(c2c(NCC3CCC(C(=O)NCCC4=CCCCC4)CC3)c(=O)c2=O)CC1 (configuration not stated)	-23%	/	-29%[46.1 µM]	/	-8%	-1%	-8%	-13%
Clc1ccc2nc(-c3ccccc3)cn2c1	?	/	?	/	-6%	3%	-46%	-29%
CCc1ccc(CNCc2ccc(OCC(O)CN(C)Cc3ccccc3)cc2)nc1 (configuration not stated)	/	/	/	/	6%	0%	-23%	-8%
O=C1c2ccccc2C(=O)N1CCCc1nc2ccccc2c(=O)n1CCCn1ccnc1	16%	?	-9%	4%	-7%	4%	-1%	1%
COc1ccccc1CNC(=O)C1CCN(S(=O)(=O)c2ccc3c(c2)CCCN3C(C)=O)CC1	0%[46.1 µM]	0.0%	/	14%	/	/	-22%	/
O=C(c1cc(COc2c(F)cccc2F)on1)N1CCC(c2ccncc2)CC1	-8%	/	?	/	7%	-1%	-4%	1%
C=CCN1C(=O)/C(=c2\sc3nc(=O)c(Cc4ccc(OC)c(OC)c4)nn3c2=O)c2ccccc21	4%[46.1 µM]	/	0%[46.1 µM]	/	-1%	0%	-6%	-8%
Cc1ccn2c(=O)nc(SCC(=O)NCc3ccccc3)nc2c1	3%[46.1 µM]	/	3%	/	/	-2%	-8%	-12%
Cc1ccc(NC(=O)c2cnc3sc(N4CCOCC4)nn3c2=O)cc1N(C)C	/	-2.8%	7%[46.1 µM]	-4%	/	/	32µM*	/
Cc1ccc(NC(=O)c2cccc(NC3=NC4CS(=O)(=O)CC4S3)c2)cc1C (configuration not stated)	/	/	/	/	4%	1%	-7%	-15%
C/C(CCc1ccco1)=N\NC(=O)CNc1c(Br)cc(Br)cc1Br	-2%	/	-6%	/	/	2%	1%	-13%
C[n+]1ccccc1/C=C/c1ccc([N+](=O)[O-])cc1	8%[46.1 µM]	/	2%[46.1 µM]	/	5%	1%	-3%	-6%
O=C(Cc1ccc(NC(=O)N2CCSc3ncccc32)cc1)NCc1cccc(Cl)c1	-15%[46.1 µM]	-9.6%	/	-5%	/	/	-15%	/
CCCCn1c(N)c(N(CCOC)C(=O)c2cc3ccccc3cc2OC)c(=O)[nH]c1=O	-10%	/	-1%	/	/	-7%	-10%	-6%
CCOC(=O)N1CCc2c(sc3[nH]c(=S)[nH]c(=S)c23)C1	9%	/	1%[46.1 µM]	/	8%	7%	4%	3%
COc1ccc(CCNC(=O)CCn2c(=O)c3ccccc3n(CC(=O)Nc3cccc(C)c3)c2=O)cc1OC	28%[46.1 µM]	-2.1%	-8%[46.1 µM]	-8%	/	/	-9%	/
CCn1c(Cc2ccccc2)nnc1SCC(=O)Nc1ccccc1	-3%	0.8%	0%	1%	-6%	-9%	25%	5%
COc1ccc(C2SCC(=O)Nc3c2c(C)nn3C2CCOC(C)(C)C2)cc1OC (configuration not stated)	-3%	2.8%	7%	20%	-4%	15%	10%	1%
COc1cc2c(c(OC)c1OC)-c1ccc(O)c(=O)cc1C(NC(C)=O)CC2 (configuration not stated)	-26%	6.1%	?	0%	3%	1%	-8%&-4%	-4%
CCc1cccc(NC(=O)CSc2nncn3c2cc2sccc23)c1	-5%[46.1 µM]	-3.9%	/	6%	/	/	-2%	/
The list goes on:
SMILES	LASV entry inh	Cruzain inh Det	MARV entry inh	Cruzain noTriton	NS1 inh	SARS PLP yeast	StopGo reporter	RE007 growth inh
COc1ccc(/C=N/O)cc1COc1ccc(NC(C)=O)cc1	2%	-4.5%	?	-12%	6%	10%	-7%	4%
CCOC(=O)COc1c(OC)cc(Cl)cc1C1Nc2ccccc2C(=O)N1c1ccc(F)cc1 (configuration not stated)	?	-14%	?	-30%	13µM*	-4%	/	8%
Cc1ccccc1OCc1nnc2n1CC(C)S2 (configuration not stated)	/	-4.3%	10%	-1%	?	4%	-5%	12%
CCN(CC)S(=O)(=O)c1ccc(OC)c(NC(=O)COc2ccccc2[N+](=O)[O-])c1	/	/	/	/	6%	0%	2%	12%
C=CCNC(=O)N[C@@H](Cc1ccccc1)C(=O)OC	-11%	/	7%[46.1 µM]	/	0%	-1%	4%	-10%
C[C@@H]1C[C@H](Nc2ccccc2)c2ccccc2N1C(=O)c1cccnc1	?	-0.3%	10µM*	-2%	1%	0%	?	9%
CC1=C(C(=O)OCc2ccc(C)cc2)C(c2cccc(F)c2F)CC(=O)N1 (configuration not stated)	6%[46.1 µM]	-15%	-9%[46.1 µM]	0%	/	/	?	/
O=C1CN(C(=O)COc2ncnc3ccccc23)c2ccccc2N1	8%	4.2%	6%[46.1 µM]	-5%	2%	18%	-9%	-3%
O=C(NCc1ccc(F)cc1)C1CCCN(S(=O)(=O)c2cccnc2)C1 (configuration not stated)	11%	8.8%	-12%	9%	-59%	4%	-1%	6%
Cc1cc(NS(=O)(=O)c2ccc3oc(=O)c4ncn(C)c4c3c2)ccc1Br	-2%[46.1 µM]	-2.7%	/	?	/	/	-14%	/
COc1ccc(NC(=O)c2ccc(-c3ccc(OC)cc3)s2)cc1	1%[46.1 µM]	/	16%[46.1 µM]	/	/	3%	4%	-9%
O=S(=O)(Nc1ccccn1)c1cc(Cl)ccc1Cl	/	/	/	/	4%	0%	39%[activator]	-3%
CCOCCCN(C)C1CCN(C(=O)c2oc3ccccc3c2NC(=O)Cc2cccc([N+](=O)[O-])c2)CC1	?	/	?	/	10%	-3%	35%[activator]	-12%
COc1cc(NC(=O)C/C(C)=N/NC(=O)c2cccs2)c(OC)cc1Cl	?	/	?	/	0%	-2%	32%[activator]	-8%
